Screens (PubChem)
RGS16-Gao HTS: modulators of RGS16 binding to Galphao, primary screen, biochemical, human proteins, multiplexed bead flow cytometry. Regulator of G-protein signaling 16 (Homo sapiens) + Guanine nucleotide-binding protein …. bead-based flow cytometry RGS16-Galphao binding, fluorescence; actives lie on both sides. binding response (% of control), % at 10 µM. 0.38% of 220,000 active;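 active = below 25% or above 175%, edge rows of some plates excepted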;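 also: Galphao activated by GDP with aluminum fluoride before binding; 100% = wells without compound and 0% = beads without RGS; some results beyond the cut were filed as inactive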
Target sequence (O15492 whole entry, looked up): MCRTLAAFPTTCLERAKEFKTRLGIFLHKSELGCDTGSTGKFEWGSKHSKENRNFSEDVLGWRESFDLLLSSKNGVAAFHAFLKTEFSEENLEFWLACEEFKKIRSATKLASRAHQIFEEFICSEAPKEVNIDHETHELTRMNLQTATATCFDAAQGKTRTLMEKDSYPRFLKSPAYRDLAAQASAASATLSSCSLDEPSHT
Target sequence (P09471 whole entry, looked up): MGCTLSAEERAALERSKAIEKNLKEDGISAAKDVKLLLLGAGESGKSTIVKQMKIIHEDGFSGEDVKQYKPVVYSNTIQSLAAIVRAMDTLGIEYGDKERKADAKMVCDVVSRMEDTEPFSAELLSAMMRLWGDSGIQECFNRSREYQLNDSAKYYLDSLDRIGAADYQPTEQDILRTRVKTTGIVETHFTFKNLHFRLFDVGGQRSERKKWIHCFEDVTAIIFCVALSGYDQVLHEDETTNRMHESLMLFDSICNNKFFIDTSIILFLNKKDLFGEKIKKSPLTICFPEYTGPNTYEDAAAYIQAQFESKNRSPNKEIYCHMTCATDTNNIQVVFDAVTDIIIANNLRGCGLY
INS promoter inh: inhibitors of insulin promoter-driven GFP, primary screen, imaging, TRM-6 cells (human fetal islet line), eGFP reporter, cell count. reporter expression induced with tamoxifen. inhibition, % at 2 µM. 0.9% of 130,000 active;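 active = inhibition above the mean plus 3 SD, with well images judged a real hit on visual review, cut at about 60% in these data, passing the limit was not always enough; inconclusive = inhibition over the cutoff but images rejected on review; inactive = inhibition not above the cutoff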
GALR2 ag: GALR2 receptor agonists, primary screen, cell-based. Galanin receptor type 2 (Homo sapiens), O43603. GALR2-expressing cells, agonist activation read-out. activation, %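 (tested at 5 µM)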. 0.48% of 140,000 active. AID 803, 2007;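 active = above mean plus 3 SD of all compounds, about 5% in these data, not always enough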;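 also: 0% = vehicle buffer wells and 100% = reference agonist at full effect; tested in CHO reporter cells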
Target sequence (O43603 whole entry, looked up): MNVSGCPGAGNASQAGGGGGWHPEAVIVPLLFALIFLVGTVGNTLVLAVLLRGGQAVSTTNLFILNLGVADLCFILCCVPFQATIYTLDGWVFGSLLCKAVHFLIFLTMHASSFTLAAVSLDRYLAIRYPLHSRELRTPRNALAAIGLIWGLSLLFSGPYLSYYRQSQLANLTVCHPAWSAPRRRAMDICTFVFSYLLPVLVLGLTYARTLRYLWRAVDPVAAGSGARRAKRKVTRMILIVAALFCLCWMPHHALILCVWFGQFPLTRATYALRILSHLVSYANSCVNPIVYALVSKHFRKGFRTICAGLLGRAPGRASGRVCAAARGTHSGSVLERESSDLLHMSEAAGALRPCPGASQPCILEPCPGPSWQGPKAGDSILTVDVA
PKD1 kinase inh: inhibitors of human PKD1 kinase, biochemical, fluorescence polarization; PKD1 kinase fluorescence polarization assay; 0.056% of 200,000 active; inhibition, %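 (about 10 µM by stock and volumes)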; AID 797, 2007;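 active = inhibition of 50% or more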;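 also: controls were vehicle for no effect and a reference inhibitor for full effect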
HSV augment: enhancers of HSV replication in host cells, fold increase, host cell viability; HSV replication augmentation in cells; maximum fold increase; 0.005% of 220,000 active;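 active = peak rise of 1.5-fold or more in the series; inconclusive = self-fluorescent or not available for retest; tested in PC3 cells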;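 also: first round at 10 µM; read as green reporter fluorescence; hits show the peak of a series up to 25 µM; 1 = signal of infected wells without compound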
INS promoter inh cell count: second read-out of INS promoter inh, no call of its own (marks repeat the call); normalized cell count, %; measured here: cell count, toxicity; reference of the scale not given here;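 cells exposed to compound for 48 h; stained nuclei by imaging scaled within each plate; lower means fewer cells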
HSV augment primary fold: second read-out of HSV augment, no call of its own (marks repeat the call); fold increase; compound at 10 µM; measured here: primary screen fold increase 10 uM; tested in PC3 cells;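 GFP signal in the first replicate; 1 = infected wells without compound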
* hit, by the source's call; i = inactive; ? = inconclusive; . = no result given.

SMILES,RGS16-Gao HTS,INS promoter inh,INS promoter inh cell count,GALR2 ag,PKD1 kinase inh,HSV augment,HSV augment primary fold
CCOc1ccc(-n2ccnc2SCC(=O)Nc2nnc(CC)s2)cc1,99,82*,113*,-1.0,-11,i,0.93
O=C1OCCC1Sc1nnc(-c2ccc(F)cc2)n1Cc1ccccc1 (centres undefined),101,43,99,-0.6,5,i,0.98
COc1cc2c(cc1OC)C1=CC(=O)C(=O)N1C(C)(C)C2,98,.,.,.,9,?,.
Cn1c(=N)n(CC(=O)c2ccc(Br)s2)c2ccccc21,103,-60,121,-1.2,-3,.,.
COc1ccc(NC2=C(C(C)=O)C(c3ccccc3)C(C(C)=O)C(C)(O)C2)cc1 (centres undefined),96,.,.,.,.,i,0.94
O=C1OC(c2ccccc2)C2(CCCC2)C(=O)C12CCCC2 (centres undefined),101,-67,57,-0.2,1,i,0.88
O=C(CN(C(=O)CNC(=O)c1ccco1)c1ccc2c(c1)OCCO2)NC1CCCC1,102,.,.,.,-5,i,1
Cc1ccn2cc(-c3cccc(NC(=O)c4ccccc4)c3)nc2c1,110,41,118,0.5,-22,i,0.89
O=C(NCCc1ccc(Cl)cc1)C1CCN(S(=O)(=O)N2CCCCC2)CC1,98,.,.,-1.8,-22,i,1.1
C/C(=N/NC(=O)C(C)n1nc(C)c([N+](=O)[O-])c1C)c1ccc(OCC(N)=O)cc1 (centres undefined),95,.,.,.,.,i,1
O=C(COc1ccc(Br)cc1)N1CCOCC1,103,-81,144,-3.1,-3,i,1.1
Cc1onc(-c2c(F)cccc2Cl)c1C(=O)OCn1nnc2ccccc2c1=O,101,.,.,-3.3,0,i,0.87
CC1=Nc2cccc([N+](=O)[O-])c2NC(=O)C1,105,35,95,.,-8,i,0.97
CN(C)/C=C/C(=O)c1cccc([N+](=O)[O-])c1,107,-138,76,.,-5,i,0.95
Cn1nc(C(=O)Nc2sc3c(c2C#N)CCCC3)ccc1=O,101,-53,62,.,-6,i,1.1
CCCCCCNc1nc(Cl)nc(NC(C)(C)CO)n1,96,.,.,.,.,i,1
CCOC(=O)c1cccc(NC(=O)CSc2nnc(-c3cccnc3)n2C)c1,100,-37,142,-0.1,-6,i,0.77
CCS(=O)c1ccccc1C(=O)O (centres undefined),98,.,.,0.3,9,i,1.1
CCCNC(=O)CC1Sc2ccccc2NC1=O (centres undefined),104,-111,102,-2.2,-5,i,1
CCC(C)NC(=O)C1CCCN1S(=O)(=O)c1ccc(Cl)cc1 (centres undefined),104,-31,82,-0.5,-3,i,1
C=C(C)C1CC=C(C)/C(=N/NC(=O)c2ccccc2[N+](=O)[O-])C1 (centres undefined),114,33,146,.,-6,i,1
CSc1nc(-c2ccco2)cc(-c2ccccc2)c1C#N,94,.,.,-0.6,-7,i,0.88
COc1cccc(/C=N/Nc2ccc(S(=O)(=O)O)cc2)c1O,100,.,.,-1.8,-9,i,1.1
CSCC[C@H](NC(=O)Nc1ccc(C)cc1C)C(=O)O,97,.,.,-0.2,5,i,0.97
CC1CC(NC(=O)/C(C#N)=C/c2ccc[nH]2)CC(C)(C)C1 (centres undefined),101,.,.,.,.,i,0.99
CN(CC(=O)N1CCCCCC1)S(=O)(=O)c1ccc(Br)s1,99,4,178,0.0,-2,i,1.1
Cc1cc(NC(=O)C2CCCCC2)ncc1NC(=O)c1ccccn1,97,.,.,.,8,i,1
c1ccc(Cn2c(NCc3ccncc3)nc3ccccc32)cc1,109,-14,33,.,-1,i,0.98
Cc1cc(Cl)ccc1NC(=S)NCc1ccc(S(N)(=O)=O)cc1,99,-41,118,.,5,i,1.1
c1ccc(N/N=C(\Cc2ncc[nH]2)c2ccccc2)cc1,103,.,.,.,1,i,1.2
CCc1nnc(NC(=O)CSc2nnc(COc3ccc(C)cc3)n2-c2ccccc2)s1,102,.,.,-1.3,6,i,0.94
CC(C)(C)NC(=O)C(=O)NCc1ccncc1,100,0,82,-0.1,-17,i,0.95
O=C(Nc1ccc(OCC(F)(F)C(F)F)c(C(F)(F)F)c1)c1ccccc1O,100,30,84,-1.4,-3,i,0.67
CC(C)C(=O)NC(=S)N1CCc2ccccc21,102,38,141,-2.4,4,i,1
CSc1ccc(/C=N/NC(=O)c2cccc(Cl)c2)cc1,109,7,143,-0.2,-5,i,0.75
Cc1nn(CC(=O)Nc2ccc(Cl)cn2)c(C)c1Br,113,-50,60,0.8,-9,.,.
Cc1cc(C(=O)CSc2nc3ccccc3o2)c(C)n1CC1CCCO1 (centres undefined),100,-43,121,-1.8,1,i,1.1
Cc1nnc(C)c2c(C)n(-c3ccc(Br)cc3)c(C)c12,107,24,122,0.9,3,i,1
Cc1cc(C)n(-c2nc3ccccc3c(=O)n2OCC(=O)N(C)C)n1,99,.,.,-1.9,-5,i,1.1
CCN(Cc1ccccc1)C(=O)C1CCN(C/C(C)=C/c2ccccc2)CC1,112,-17,75,0.5,2,.,.
Cc1nnc(NC(=O)C2CCCN(S(=O)(=O)c3ccccc3C(F)(F)F)C2)s1 (centres undefined),101,-34,69,0.1,-4,i,0.98
O=C(Nc1ccccc1N1CCCC1)c1cc(Cl)ccc1Cl,101,-70,117,.,-5,i,1.1
COCCNC(=O)C(c1ccccc1)N(Cc1cccs1)C(=O)Cn1nnc2ccccc21 (centres undefined),106,31,84,0.5,0,i,0.91
Cc1ccccc1NC(=S)NCCc1ccc(S(N)(=O)=O)cc1,109,-2,75,-0.9,-16,i,1
COC(=O)c1sccc1NC(=S)N1C(C)CCCC1C (centres undefined),100,19,111,.,2,i,0.92
CCOc1ccc(N(CC(=O)Nc2ccc(OC)cc2)S(=O)(=O)c2c(C)noc2C)cc1,107,.,.,-3.0,5,i,1
CC(=O)c1ccc2noc(-c3ccc(F)cc3)c2c1,108,-64,187,.,-7,i,1.2
O=C(CSc1nnc(CNC(=O)c2cccs2)o1)NCCc1ccccc1,101,18,86,-1.4,-9,i,0.99
Cc1cc(C(=O)COC(=O)c2nc3nccc(C)n3n2)c(C)n1CC1CCCO1 (centres undefined),114,67,41,.,0,i,0.68
Cc1cccc(NC(=O)c2cc3n(n2)C(C(F)(F)F)CC(C2CC2)N3)c1C (centres undefined),102,-8,90,0.9,-3,i,1.1

Part of the list above in order of SMILES length, falling:
SMILES,RGS16-Gao HTS,INS promoter inh,INS promoter inh cell count,GALR2 ag,PKD1 kinase inh,HSV augment,HSV augment primary fold
CCOc1ccc(N(CC(=O)Nc2ccc(OC)cc2)S(=O)(=O)c2c(C)noc2C)cc1,107,.,.,-3.0,5,i,1
COCCNC(=O)C(c1ccccc1)N(Cc1cccs1)C(=O)Cn1nnc2ccccc21 (centres undefined),106,31,84,0.5,0,i,0.91
CCc1nnc(NC(=O)CSc2nnc(COc3ccc(C)cc3)n2-c2ccccc2)s1,102,.,.,-1.3,6,i,0.94
O=C(Nc1ccc(OCC(F)(F)C(F)F)c(C(F)(F)F)c1)c1ccccc1O,100,30,84,-1.4,-3,i,0.67
CCN(Cc1ccccc1)C(=O)C1CCN(C/C(C)=C/c2ccccc2)CC1,112,-17,75,0.5,2,.,.
Cc1cc(C)n(-c2nc3ccccc3c(=O)n2OCC(=O)N(C)C)n1,99,.,.,-1.9,-5,i,1.1
Cc1cc(Cl)ccc1NC(=S)NCc1ccc(S(N)(=O)=O)cc1,99,-41,118,.,5,i,1.1
CN(CC(=O)N1CCCCCC1)S(=O)(=O)c1ccc(Br)s1,99,4,178,0.0,-2,i,1.1
c1ccc(Cn2c(NCc3ccncc3)nc3ccccc32)cc1,109,-14,33,.,-1,i,0.98
CSc1ccc(/C=N/NC(=O)c2cccc(Cl)c2)cc1,109,7,143,-0.2,-5,i,0.75
Cc1nn(CC(=O)Nc2ccc(Cl)cn2)c(C)c1Br,113,-50,60,0.8,-9,.,.
COC(=O)c1sccc1NC(=S)N1C(C)CCCC1C (centres undefined),100,19,111,.,2,i,0.92
CC(C)(C)NC(=O)C(=O)NCc1ccncc1,100,0,82,-0.1,-17,i,0.95

More results
SMILES,RGS16-Gao HTS,INS promoter inh,INS promoter inh cell count,GALR2 ag,PKD1 kinase inh,HSV augment,HSV augment primary fold
COC(=O)Cn1c(=NC(=O)c2cc(OC)cc(OC)c2)sc2cc(OC)ccc21,106,3,101,-0.1,-5,i,0.95
Cc1cc(C)nc(SCC(=O)NC2CCCC2)n1,103,-109,94,.,-4,i,1.1
O=C(CSc1nc2ccccc2[nH]1)N1CCN(S(=O)(=O)c2ccc(Cl)cc2)CC1,101,-97,61,1.3,-3,i,0.9
CCOc1cc(Br)c(C(=O)O)cc1OC,102,.,.,-4.2,-5,i,0.98
Cc1ccc(NCc2nnc(SCC(=O)NCc3ccco3)n2CC2CCCO2)cc1Cl (centres undefined),97,-24,30,0.1,0,i,1
CC(C)CNC(=O)CSc1ccc(Cl)cc1,109,-8,95,-1.9,-9,i,1
Cc1onc(-c2ccccc2)c1C(=O)N/N=C/c1cn(C)c2ccccc12,106,-55,77,.,5,i,1
Cc1ccc2nc(-c3ccc(NC(=O)COC(=O)c4ccco4)cc3)sc2c1,100,.,.,1.4,-9,i,0.82
COCCNC(=O)Cn1cc(C(=S)N2CCOCC2)c2ccccc21,98,.,.,.,1,i,0.97
Cc1ccc2c(c1)nnn2C1CCN(CC(=O)Nc2ccccc2N2CCOCC2)CC1,96,-82,84,1.4,0,i,0.82
CSCCC1NC(=O)N(CC(=O)Nc2ccc(-c3ccccc3)cc2)C1=O (centres undefined),101,.,.,.,.,i,0.92
CSc1ccc(/C=N/NC(=O)c2cccc(O)c2)cc1,111,.,.,-1.6,4,i,0.82
COc1ccc(OCc2nn3c(-c4ccco4)nnc3s2)cc1,94,-44,122,-1.4,-6,i,0.88
CCn1c(=S)[nH]c2cc(C(=O)OC)ccc2c1=O,93,8,92,-0.1,-1,i,1.1
Cc1ccc2cc(CN(Cc3ccccc3)Cc3nnnn3C3CCCC3)c(=O)[nH]c2c1,103,18,49,-1.0,-6,i,0.89
CN(C(=O)CCc1ccccc1)c1nnc(-c2ccncc2)s1,106,.,.,.,-2,i,0.9
CNC(=S)N/N=C/c1cc(C)n(-c2ccc(Cl)c(Cl)c2)c1C,102,25,131,4.0,3,i,0.87
COC(=O)COc1ccsc1C(=O)OC,106,21,100,-0.8,-6,i,1
CCn1cc(C(=O)NC2CCC(C)CC2)c(=O)c2cc(S(=O)(=O)N3CCCCC3)ccc21 (centres undefined),106,.,.,0.5,-5,i,0.74
O=C(NCc1ccco1)c1ccc2ccccc2c1,98,50,120,-0.1,-24,i,0.84
COc1ccc(NS(=O)(=O)c2ccc3c(c2)Cc2ccccc2-3)cn1,99,38,112,-3.4,-2,i,0.95
COc1cccc(CSc2nnc(CSc3nc4nc(C)cc(C)n4n3)s2)c1,102,-3,107,-0.5,-1,i,1.4
Cc1ccc(C)c(N/C(N)=N/c2nc(C)cc(C)n2)c1,107,19,112,-2.1,-18,i,0.9
COC(=O)/C=C1\SC(=NC(=O)c2cccc(Cl)c2)NC1=O,117,12,126,-2.9,0,.,.
CN(c1ccc(C(=O)N2CCCCC2)cc1)S(=O)(=O)c1ccccc1,98,47,94,-4.7,-4,i,1.1
c1ccc(CN2CCN(C(c3ccccc3)c3nnnn3Cc3ccccc3)CC2)cc1 (centres undefined),105,-5,115,-1.3,1,i,1.1
COc1cc(C(C[N+](=O)[O-])c2c(C)[nH]c3ccccc23)ccc1O (centres undefined),32,12,44,-3.0,2,i,1
O=C(CN1CCN(Cc2ccc3c(c2)OCO3)CC1)Nc1ccc(N2CCOCC2)cc1,100,21,128,.,-3,i,0.95
CN1c2ccccc2C(C)(C)C12CC(c1cccc(S(=O)(=O)N3CCCC3)c1)=NO2 (centres undefined),108,27,129,-0.8,1,i,1.1
CC(=O)Nc1cccc(Oc2ncnc3scc(-c4ccc(C)cc4)c23)c1,104,.,.,1.1,-12,i,0.93

Rows were taken by chance; 1.3% or so of the library scored in one or more.
